Screening results: PubChem, Broad Institute
BJeLR viab HTS: compounds reducing viability of BJeLR cells; BJeLR fibroblasts viability, CellTiterGlo ATP luminescence, 48 h; HRASV12, hTERT and SV40 LT/ST transformed; viability loss activity score, % (concentration not given with the values); 30,000 compounds, 0.64% hits; in the data active means viability loss activity score above about 50%; about a fifth of its hits are not listed in these tables;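 further: higher score means fewer live cells and less ATP luminescence; stock transfer was 50 or 100 nL into about 30 µL; 0% = vehicle wells and 100% = a reference killing control; one replicate is shown; the record names a cut of 85%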
A1 inhib: A1 inhibition; caspase activation, % (test concentration not listed); MEF A1-2A-BIM cells, caspase-Glo luminescence, 3 h; percent of clofoctol signal, DMSO as zero; 21,000 compounds, 0.51% hits;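 active means most replicate scores above 10, or exactly half above 10 with mean activity above 10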;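 further: effector caspase 3 and 7 activity cleaving a DEVD luciferin substrate; 50 nL library stock added to about 30 µL; numbers are from one replicate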
Numbers without * were called inactive; . = not tested or not shown. Only part of the results is shown; count on the stated rates, not on these rows.

SMILES	BJeLR viab HTS	A1 inhib
Cc1oncc1C(=O)Nc1ccc(C(F)(F)F)cc1	6.6	-6.8
CN1CCC(=C2c3ccccc3CC(=O)c3sccc32)CC1	0.4	-0.3
C[C@@H]1O[C@@H](OC[C@H]2O[C@@H](Oc3cc(O)c4c(c3)OC(c3ccc(O)cc3)CC4=O)[C@H](O)[C@@H](O)[C@@H]2O)[C@H](O)[C@H](O)[C@H]1O (some centres not stated)	2.3	-0.1
CN1CCN(CCCN2c3ccccc3Sc3ccc(S(=O)(=O)N(C)C)cc32)CC1	-10.3	0.4
NC(=O)c1ccc(-c2nc(-c3ccc4c(c3)OCO4)c(-c3ccccn3)[nH]2)cc1	-4.7	0.4
CCCCOC(=O)c1ccc(N)cc1	3.3	-0.2
OCC(O)CN1CCN(c2ccccc2)CC1 (configuration not stated)	-0.2	-1.3
CN=C(NC#N)Nc1ccc(C2=NNC(=O)CC2C)cc1 (configuration not stated)	-1.8	-0.1
CN(C)CCOC(=O)C(c1ccccc1)C1(O)CCCC1 (configuration not stated)	6.3	0.6
CCCN(CCC)C(=O)C(CCC(=O)O)NC(=O)c1ccccc1 (configuration not stated)	0.5	0.4
COC(=O)Nc1nc2ccc(S(=O)c3ccccc3)cc2[nH]1 (configuration not stated)	3.9	1.0
COC(=O)C1=CO[C@@H](O[C@@H]2O[C@H](CO)[C@@H](O)[C@H](O)[C@H]2O)C2C1CC(O)C2C (some centres not stated)	4.5	-0.2

Structural class: the entries above containing an NH in an aromatic ring (2)
SMILES	BJeLR viab HTS	A1 inhib
NC(=O)c1ccc(-c2nc(-c3ccc4c(c3)OCO4)c(-c3ccccn3)[nH]2)cc1	-4.7	0.4
COC(=O)Nc1nc2ccc(S(=O)c3ccccc3)cc2[nH]1 (configuration not stated)	3.9	1.0

Additional results:
SMILES	BJeLR viab HTS	A1 inhib
CC(C)(C(=O)c1cccnc1)c1cccnc1	3.1	0.0
CCN(CC)CCOC(=O)C(c1ccccc1)c1ccccc1	-2.0	-0.1
CC[C@]12CCCN3CCc4c(n(c5ccccc45)[C@@](O)(C(=O)OC)C1)[C@@H]32	4.1	1.7
NC(=O)NC(=O)Cc1ccccc1	5.5	-0.2
CCC(Cc1c(I)cc(I)c(N)c1I)C(=O)O (configuration not stated)	-6.9	-0.6
CCN1CCN(c2cc(C)c3cc(NC(=S)NCc4ccc(C)cc4)ccc3n2)CC1	1.7	.
Cc1cc(O)c2c(c1)C(=O)c1cccc(O)c1C2=O	-1.7	0.7
CCOC(=O)Nc1ccc2c(c1)N(C(=O)CCN1CCOCC1)c1ccccc1S2	-4.6	-0.7
Cc1ccc(C(=O)C(C)CN2CCCCC2)cc1 (configuration not stated)	-1.8	-0.1

Seven neighbouring compounds already listed, quoted:
SMILES	BJeLR viab HTS	A1 inhib
COC(=O)C1=CO[C@@H](O[C@@H]2O[C@H](CO)[C@@H](O)[C@H](O)[C@H]2O)C2C1CC(O)C2C (some centres not stated)	4.5	-0.2
CC(C)(C(=O)c1cccnc1)c1cccnc1	3.1	0.0
CCN(CC)CCOC(=O)C(c1ccccc1)c1ccccc1	-2.0	-0.1
CC[C@]12CCCN3CCc4c(n(c5ccccc45)[C@@](O)(C(=O)OC)C1)[C@@H]32	4.1	1.7
NC(=O)NC(=O)Cc1ccccc1	5.5	-0.2
CCC(Cc1c(I)cc(I)c(N)c1I)C(=O)O (configuration not stated)	-6.9	-0.6
CCN1CCN(c2cc(C)c3cc(NC(=S)NCc4ccc(C)cc4)ccc3n2)CC1	1.7	.

Another view of 2 compounds above:
Molecule | BJeLR viab HTS | A1 inhib
Cc1cc(O)c2c(c1)C(=O)c1cccc(O)c1C2=O | -1.7 | 0.7
CCOC(=O)Nc1ccc2c(c1)N(C(=O)CCN1CCOCC1)c1ccccc1S2 | -4.6 | -0.7
